# TNAP act hiacc = TNAP activators at high phosphate acceptor level, primary screen, biochemical, luminescence, uHTS; purified TNAP, CDP-star luminescence, 1 M DEA, 30 min; active compounds read high; 0 = EDTA background, 1 = DMSO-only activity; activation factor at 20 µM; 200,000 tested, under 10 active; Alkaline phosphatase, tissue-nonspecific isozyme (Homo sapiens), P05186;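 active = activation factor at least 2 at 20 µM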
# Target sequence (P05186 whole entry, looked up): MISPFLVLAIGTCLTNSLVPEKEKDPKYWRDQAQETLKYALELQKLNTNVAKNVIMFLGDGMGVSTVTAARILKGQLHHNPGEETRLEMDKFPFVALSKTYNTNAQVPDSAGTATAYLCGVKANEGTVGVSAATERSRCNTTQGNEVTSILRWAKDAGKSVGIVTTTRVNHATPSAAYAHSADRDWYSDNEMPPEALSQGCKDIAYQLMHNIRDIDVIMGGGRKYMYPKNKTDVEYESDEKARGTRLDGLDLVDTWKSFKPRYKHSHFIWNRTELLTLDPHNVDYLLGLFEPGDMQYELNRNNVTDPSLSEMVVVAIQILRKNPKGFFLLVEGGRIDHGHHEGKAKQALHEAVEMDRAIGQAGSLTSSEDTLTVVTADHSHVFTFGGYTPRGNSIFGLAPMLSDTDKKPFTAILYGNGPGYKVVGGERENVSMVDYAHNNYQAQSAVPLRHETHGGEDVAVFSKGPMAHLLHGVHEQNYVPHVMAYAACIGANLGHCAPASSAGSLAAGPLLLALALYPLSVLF
#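 system = human TNAP | amount = enzyme diluted 1/800 final | reagent = 100 µM CDP-star substrate | signal = luminescent substrate turnover signal | dosing = one dose, 20 µM | benchmarks = EDTA negative control, DMSO positive control | measure = activation factor | timing = 30 min reaction, room temperature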
# G6PDH counter = L. mesenteroides G6PDH inhibitors, counter-screen for G6PDH-coupled screening assays, biochemical, Leuconostoc mesenteroides enzyme; Purified L. mesenteroides G6PDH, diaphorase/resazurin coupled fluorescence, 45 min; glucose-6-phosphate dehydrogenase [Leuconostoc mesenteroides]; AID 1020, 2008; inhibition, % at 5 µM; 200,000 compounds, 0.12% hits; in the data active = inhibition above about 50%
# TNAP inh noacc = human TNAP enzyme inhibitors, primary screen, biochemical, luminescent, no phosphate acceptor, uHTS. purified TNAP, CDP-star luminescence, 30 min. inhibition, % at 20 µM. 200,000 compounds, 0.26% hits;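 active = tissue-nonspecific alkaline phosphatase inhibition above about 50% at 20 µM in the single-dose screen, limit read from the data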;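 note: 0% = DMSO negative control and 100% = EDTA positive control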
# TNAP inh hiacc = human TNAP enzyme inhibitors, primary screen, biochemical, luminescent, high phosphate acceptor level, uHTS | Alkaline phosphatase, tissue-nonspecific isozyme (Homo sapiens), P05186 | AID 1135, 2008 | inhibition, % at 20 µM | 200,000 compounds, 0.03% hits | purified TNAP, CDP-star luminescence, 1 M DEA;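 active = over 50% inhibition of tissue-nonspecific alkaline phosphatase at 20 µM in the single-dose screen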;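 note: plate controls were DMSO wells for no effect and EDTA-quenched wells as full inhibition for full effect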
# FLuc stim CS = FLuc activators, initial screening, artefact control for FLuc-dependent activation tests, biochemical, ATPlite luminescence. ATPlite luciferase biochemical, 10 min; 0 = ATP-free wells, 1 = DMSO control. activation factor at 10 µM. 200,000 tested, under 10 active. AID 1027, 2008;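 active = luciferase activation factor, scaled between plate controls, of at least 2 with compound at 10 µM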
# Target sequence (P08659 whole entry, looked up): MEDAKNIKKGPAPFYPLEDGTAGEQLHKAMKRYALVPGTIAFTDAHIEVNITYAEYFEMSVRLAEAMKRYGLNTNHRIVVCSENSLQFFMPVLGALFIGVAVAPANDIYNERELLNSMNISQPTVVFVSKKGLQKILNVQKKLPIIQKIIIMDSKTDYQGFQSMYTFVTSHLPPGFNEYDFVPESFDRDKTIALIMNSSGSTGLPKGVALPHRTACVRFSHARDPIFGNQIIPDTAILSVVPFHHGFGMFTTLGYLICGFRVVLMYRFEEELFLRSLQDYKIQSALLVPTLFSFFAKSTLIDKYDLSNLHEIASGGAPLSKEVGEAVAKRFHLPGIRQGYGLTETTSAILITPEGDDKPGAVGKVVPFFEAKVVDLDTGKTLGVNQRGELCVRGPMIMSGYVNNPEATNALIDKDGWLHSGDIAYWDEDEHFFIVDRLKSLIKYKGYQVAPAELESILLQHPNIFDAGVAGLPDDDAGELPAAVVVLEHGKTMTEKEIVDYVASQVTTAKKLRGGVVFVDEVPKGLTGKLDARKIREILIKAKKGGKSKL
#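 Material: Luciferase/luciferin reagent mix; Doses: test compounds dosed from 2 mM stocks in 100% DMSO; Schedule: 10 min incubation after luciferase reagent addition, room temperature; Measured by: luminescence from luciferase reaction; Read-out: luminescence gain marking luciferase activators.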
# HMGR II inh = inhibitors of E. faecalis class II HMGR, primary screen, biochemical, Enterococcus faecalis. HMG-CoA reductase (Enterococcus faecalis, mvaE). purified E. faecalis HMGR, NADPH absorbance 340 nm kinetic. inhibition, % at 10 µM. 190,000 compounds, 0.41% hits. AID 1066, 2008;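 active = inhibition above a set limit, the median over all tested compounds plus 3 SD, cut at about 9.5% in these data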;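 note: enzyme runs in reverse so mevalonate oxidation gives rising NADPH absorbance; 0% = complete reaction with DMSO and 100% = background rate lacking mevalonate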
# Diaphorase inh = diaphorase inhibitors and chemical oxidizers, primary screen, counter-screen for diaphorase-coupled primary assays, biochemical, uHTS, resorufin fluorescence | diaphorase resazurin-to-resorufin fluorescence, NADH, 16 min; bacterial (C. kluyveri) enzyme, not human | inhibition, % at 20 µM | 190,000 compounds, 0.69% hits | AID 1217, 2008;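 active = primary screen inhibition at 20 µM above a set limit, cut at about 50% in these data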;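 note: plate controls were DMSO with full reaction for no effect and wells lacking NADH for full effect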
#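 Test system: Clostridium kluyveri diaphorase enzyme / Quantity: diaphorase at 0.14 U/mL in enzyme working solution / Incubation: 16-min room-temperature incubation before reading / Benchmarks: NADH-free wells as positive control, DMSO-only neutral wells / Signal: resorufin fluorescence 544/590 nm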
# Starred values were filed as active, the others as inactive; · = not tested or not shown; & = joins results of further samples.
SMILES,TNAP act hiacc,G6PDH counter,TNAP inh noacc,TNAP inh hiacc,FLuc stim CS,HMGR II inh,Diaphorase inh
Cc1ccc(OCCNC(=O)/C=C/c2ccc([N+](=O)[O-])cc2)cc1C,1,9,-3,-2,1.1,-2,20
COc1ccc(/C=C/C(=O)NCc2c(C)nn(C)c2C)cc1COc1ccc(Br)cc1,1,6,5,0,1.1,-8,19
CCN(CC)C(=O)C(=O)N/N=C/c1cccs1,1,15,-7,-3,1,-1,12
O=C(Nc1cc2c(oc1=O)CCCC2=O)c1ccc(Cl)cc1,1.1,8,-11,-6,1,-5,20
Cc1nn(C)c(Oc2ccc(Cl)cc2)c1C(=O)Nc1ccc(F)cc1F,1,3,-5,0,1,-1,10
CCOC(=O)c1cnc2c(N=Nc3cccc(Cl)c3)c(N)nn2c1N,0.9,4,2,6,0.9,-11,1
COc1ccccc1CCN1C(=S)NC(C)(C)CC1(C)O (stereo not drawn),1,2,2,-1,1,-2,23
CCOC(=O)NC(NC(=O)OCC)C(=O)c1ccc(F)cc1,1,4,-8,-1,1.1,-5,7
CCNc1nc(NC(C)C)nc(SCCOc2ccc(C)cc2)n1,1.1,2,-8,-8,1.1,-2,30
COc1cccc(C2CC(C(F)(F)F)n3ncc(C(=O)NC(C)(C)C)c3N2)c1 (stereo not drawn),1.1,5,-6,-5,1.1,1,13

# Arranged by formula weight (rising): five of the compounds above
SMILES,TNAP act hiacc,G6PDH counter,TNAP inh noacc,TNAP inh hiacc,FLuc stim CS,HMGR II inh,Diaphorase inh
CCN(CC)C(=O)C(=O)N/N=C/c1cccs1,1,15,-7,-3,1,-1,12
O=C(Nc1cc2c(oc1=O)CCCC2=O)c1ccc(Cl)cc1,1.1,8,-11,-6,1,-5,20
CCNc1nc(NC(C)C)nc(SCCOc2ccc(C)cc2)n1,1.1,2,-8,-8,1.1,-2,30
Cc1nn(C)c(Oc2ccc(Cl)cc2)c1C(=O)Nc1ccc(F)cc1F,1,3,-5,0,1,-1,10
COc1cccc(C2CC(C(F)(F)F)n3ncc(C(=O)NC(C)(C)C)c3N2)c1 (stereo not drawn),1.1,5,-6,-5,1.1,1,13

# (more compounds)
SMILES,TNAP act hiacc,G6PDH counter,TNAP inh noacc,TNAP inh hiacc,FLuc stim CS,HMGR II inh,Diaphorase inh
Cc1ccc(NC(=O)CSc2nnc(Cn3cnc4ccccc43)o2)c(C)c1,1,10,-8,-3,1,2,10
O=C(NC(Cc1c[nH]c2ccccc12)c1nnc2n1CCCCC2)c1ccccc1 (stereo not drawn),1,11,-8,-5,1,2,12
O=C(NC1CCCC1)C(c1ccsc1)N(Cc1ccccc1)C(=O)Cc1cccs1 (stereo not drawn),1,4,-6,-3,1,-9,16
Cc1ccc2c(n1)CC(C)(C)CC2=O,1,-2,-9,-3,1.1,-1,11
COc1ccc(/C=N/NC(=O)Cc2csc(Nc3cccc(C(F)(F)F)c3)n2)cc1C,1,5,13,4,0.9,2,26
Cc1sc(NC(=O)CN2CCOCC2)c(C(=O)c2ccccc2)c1C,1,9,3,-2,1.1,5,10
CCOC(=O)c1c(C)[nH]c(C(=O)COC(=O)c2ccccc2NC(=O)c2ccco2)c1C,1,9,-7,-2,1,-8,12
CCOC(=O)c1cnc(-c2ccccc2)nc1Oc1ccc(Cl)c(Cl)c1,1,5,-3,3,1,0,9
Cc1ccccc1NCC(=O)N/N=C/C(Br)=C/c1ccccc1,1,10,0,2,0.9,-7,5
O=C(NCc1cccnc1)C1c2ccccc2C(=O)N1C1CCCCCCC1 (stereo not drawn),1.1,7,-12,-8,1.1,-7,13
Cc1nc(N2CCN(c3ccccc3)CC2)[nH]c(=O)c1Cc1cccc2ccccc12,1,3,-1,0,1,-7,4
Cc1nnc(N(C)C(=O)c2ccccn2)s1,1,6,-8,-1,1.1,-2,7
Cc1occc1C(=O)NCc1ccccc1,1,1,-7,-2,1,2,-5
O=C1Nc2cc(C(=O)N3CCOCC3)ccc2SC1N1CCOCC1 (stereo not drawn),1,6,-5,-1,1,-1,6
O=C1CSC(c2ccccn2)N1c1ccc2ccccc2c1 (stereo not drawn),1,-1,-6,-2,1,-5,18
Cc1ccsc1-c1nc(-c2ccccc2)c(-c2ccccc2)[nH]1,1,5,-12,-2,1.1,-11,11
CCOC(=O)C1CCN(C(=O)C23CC4CC(CC(C4)C2)C3)CC1,1.1,3,-8,-5,1,-5,11
COc1cc(OC)nc(Oc2ccccc2C(=O)Oc2ccc(C)cc2)n1,1,6,3,5,1.1,-3,16
O=C(NNS(=O)(=O)c1ccc(Cl)cc1)c1sccc1-n1cccc1,1,-2,-8,-2,1,-1,8
O=C(Nc1cccc(Cl)c1)OCc1cn(-c2ccc(Cl)cc2)nn1,1,1,-10,-4,1,0,-7
COc1ccc(Nc2nc(N)nc(CN(C)C3CCCCC3)n2)cc1,1,7,16,-4,1.1,0,-9
Cc1nc(N2CCN(S(=O)(=O)c3ccccc3)CC2)c2c3c(sc2n1)CC(C)CC3 (stereo not drawn),1.1,7,-1,-6,1.1,1,21
Cc1ccc(SCC(=O)Nc2ccc(N3CCN(c4ccccc4)CC3)c(F)c2)cc1,1.1,6,-14,-6,1.1,6,10
O=C(Nc1ccc(Cl)cc1)Nc1nc(-c2sccc2Br)cs1,1,8,-2,-5,1,4,2
Cc1cc2ccccc2n1CCNC(=O)c1ccccc1,1,8,-15,-4,1,0,-4
CC(NC(=O)c1ccccc1Br)c1ccc2c(c1)CCCC2 (stereo not drawn),1,-2,-6,-1,1.1,-1,15
CCn1cc(C(=O)NCC2CCCO2)c(=O)c2cc(F)c(N3CCN(C)CC3)cc21 (stereo not drawn),1,11,-6,-1,1.1,1,3
COCCn1nc2cc(C(=O)NCC34CC5CC(CC(C5)C3)C4)ccc2c1OC,1.1,5,-9,-6,1,·,9
c1ccc(Cn2nnc3c(N4CCc5ccccc5C4)ncnc32)cc1,1,4,1,-5,1.1,-3,23
O=c1c2ccccc2nc(-c2ccc(Cl)cc2Cl)n1CCCn1ccnc1,1,8,14,3,1.1,-1,12
Cc1cccc(-n2ncc3c(NCCCN4CCCC4=O)ncnc32)c1,1,11,-3,1,0.9,-3,5
CCN(CC)CCNC(=O)C1CCC(=O)N(c2ccc(OC)cc2)C1c1ccc(F)cc1 (stereo not drawn),1.1,2,-11,-5,1,-2,11
Cc1nc(NC(=O)c2ccc(Cl)cc2)sc1-c1csc(Nc2cccc(F)c2)n1,1,4,-8,-3,0.9,-3,16
CNCCCC12CCC(c3ccccc31)c1ccccc12,1&1.1&1.1,15&10&6,-2&-2&-2,0&-7&-7,1&1.1&1,2&4&-1,5&12&-2
CCc1cccc(CC)c1-n1c(SCc2cc(=O)n3ccsc3n2)nnc1-c1cccnc1,1,0,-10,-3,1.1,-2,21
CCCOc1ccc(C2C(C(=O)c3ccco3)=C(O)C(=O)N2CCN2CCOCC2)cc1OC (stereo not drawn),1,8,-5,-2,1,1,14
CC1=CC(C)(C)N(C(=O)c2ccccc2)c2ccc(C)cc21,1,5,-7,-3,1.1,2,14
COc1ccc(CCNC(=O)c2ccc(CS(=O)(=O)c3ccc(Cl)cc3)o2)cc1OC,1,-5,-8,-2,1,-5,7
COc1ccc(NC(=O)c2cc3sccc3n2Cc2ccc(F)cc2)cc1OC,1.1,14,-4,-6,1.1,-2,24
O=C(CCCN1C(=O)C2C3C=CC(C3)C2C1=O)N1CCN(c2ccccc2)CC1 (stereo not drawn),1,20,-6,-2,1,0,10
COc1ccc(/C=N/N=C/c2ccc(OC)c(O)c2)cc1O,1,4,-5,-4,0.9,·,5
Cc1ccc2c(c1)[C@@H]1CN(C)CC[C@@H]1N2S(=O)(=O)c1ccc([N+](=O)[O-])cc1,1,19,-2,0,1,-3,10
Cc1ccc(-n2c(=O)cc(N3CCC(C)CC3)[nH]c2=O)cc1,1,17,-6,-1,1.1,-9,2
CCNC(=S)NNC(=O)c1cccs1,1,2,-8,-4,1.1,-6,13
Cc1cc[n+](CC(=O)Nc2cc(C(F)(F)F)ccc2Cl)cc1,1,6,-4,-2,1,0,13
O=C(Cn1c(=O)oc2ccccc21)NC(=O)NCc1ccccc1,1,3,-6,2,1.1,-7,7
Cc1ccc(-c2noc(CN(C(=O)C34CC5CC(CC(C5)C3)C4)C(C)C)n2)cc1,1,8,-2,-2,1,-6,12
Cc1nn2c(c1-c1ccccc1)NC1=C(C(=O)CCC1)C2c1ccccc1 (stereo not drawn),1,3,-12,-4,1,-1,11
COc1ccc(Oc2nc3c(c(=O)n(C)c(=O)n3C)n2Cc2ccccc2)cc1,1,5,-10,-5,1,-3,19
CCN(CC(=O)Nc1ccc(N2CCOCC2)cc1)Cc1nc2ccccc2c(=O)[nH]1,1.1,5,-3,-5,1,-5,-2

# Among those listed so far, these have a nitro group on carbon:
SMILES,TNAP act hiacc,G6PDH counter,TNAP inh noacc,TNAP inh hiacc,FLuc stim CS,HMGR II inh,Diaphorase inh
Cc1ccc(OCCNC(=O)/C=C/c2ccc([N+](=O)[O-])cc2)cc1C,1,9,-3,-2,1.1,-2,20
Cc1ccc2c(c1)[C@@H]1CN(C)CC[C@@H]1N2S(=O)(=O)c1ccc([N+](=O)[O-])cc1,1,19,-2,0,1,-3,10

# The listing continues.
SMILES,TNAP act hiacc,G6PDH counter,TNAP inh noacc,TNAP inh hiacc,FLuc stim CS,HMGR II inh,Diaphorase inh
COc1ccc(CCNc2c(C)c(C)nc3ncnn23)cc1,1.1,6,3,-6,1.1,-4,9
O=C(NC1(C(F)(F)F)C(=O)Nc2c1c(=O)[nH]c(=O)n2Cc1ccccc1)c1ccc(Cl)cc1Cl (stereo not drawn),1,2,-10,-4,1,-8,8
CCCCC(=O)Nc1cc(C(=O)NCCc2ccccc2)ccc1Cl,1,0,-11,-3,1.1,-2,6
CCOC(=O)CSc1nc(-c2ccccc2)nc2ccccc12,1.1,7,1,-5,1.1,-3,22
CN1C(=O)CC(Sc2ccccc2C(=O)O)C1=O (stereo not drawn),1,1,1,-2,1,0,2
COCc1nnc(NC(=O)CSc2ccc(C)cc2)s1,1,10,-10,-4,1,0,24
CN1c2cccc3cccc(c23)N(C)C1c1cccs1,0.9,22,-9,7,1,-2,48
CCCCOC(=O)Nc1cccc(C(=O)OCC)c1,1,3,-4,-2,1,-3,9
CC1CCN(CC(C)CNC(=O)c2cc(-c3ccccn3)nc3ccccc23)CC1 (stereo not drawn),1,-2,6,-1,1.1,2,-6
CCSc1nnc(NC(=O)CSc2nnc(Cc3cccn3C)n2-c2ccc(C)cc2)s1,1,0,-5,-1,1,-4,14
CC(=O)NC(=S)Nc1ccc(-c2nc3ccc(C)cc3s2)cc1,1,-5,-10,-4,0.9,5,6
CNC(=O)/C(C#N)=c1\s/c(=C/C(=O)OC)c(=O)n1-c1ccccc1,1,0,2,-5,1.1,-2,5
CSc1ccc(S(=O)(=O)NCc2ccccc2Cl)cc1,1,6,-8,-4,1,-1,25
CC(=O)Nc1cccc(NC(=O)CSc2nnc(Cc3cccn3C)n2-c2ccc(F)cc2)c1,1.1,7,-15,-6,1,1,14
C=CCNC(=O)c1ccccc1Cl,1,2,-2,2,1,0,0
O=C(O)C(Cc1ccccc1)N1C(=O)c2ccccc2C1=O (stereo not drawn),1,4,-6,-3,1,2,2
Cc1ccc(-c2nc3c(cnn3-c3ccccc3)c(=O)o2)cc1,1,4,-12,-2,1,-6,13

# Source: PubChem BioAssay

# An excerpt (hit frequency here may not be typical).
